Assay outcomes from PubChem.
HNF4A DNA FP: change in binding of human HNF4A to DNA, primary screen, biochemical, fluorescence polarization, FITC-DNA. activity change, % at 10 µM. 0.3% of 360,000 active. 1 h. Hepatocyte nuclear factor 4-alpha (Homo sapiens), P41235. AID 1224865, 2016; in the data active = activity change above about 30%, passing the limit was not always enough;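 also: controls were the assay level and a saturating level of protein; the project sought stronger binding though the title names inhibitors; some compounds called inactive have numbers as strong as hits; positive values seem to mean higher polarization but the record does not say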
Target sequence (P41235 whole entry, looked up): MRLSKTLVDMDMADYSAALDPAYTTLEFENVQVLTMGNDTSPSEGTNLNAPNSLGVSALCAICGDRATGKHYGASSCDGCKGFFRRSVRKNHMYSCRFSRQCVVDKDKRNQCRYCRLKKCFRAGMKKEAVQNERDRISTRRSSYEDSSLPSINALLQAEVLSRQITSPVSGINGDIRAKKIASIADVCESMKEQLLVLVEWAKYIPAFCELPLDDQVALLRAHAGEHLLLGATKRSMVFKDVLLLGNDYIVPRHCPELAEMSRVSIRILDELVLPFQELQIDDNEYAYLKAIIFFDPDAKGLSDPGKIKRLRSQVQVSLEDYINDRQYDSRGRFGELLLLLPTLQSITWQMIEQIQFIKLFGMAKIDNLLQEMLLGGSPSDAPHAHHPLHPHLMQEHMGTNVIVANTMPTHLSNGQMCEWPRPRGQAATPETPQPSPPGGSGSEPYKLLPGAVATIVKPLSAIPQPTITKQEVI
* = called active by the depositor. Not all compounds are listed; rates above refer to the full screens.

SMILES	HNF4A DNA FP
CC(N)c1csc(Nc2ccc(S(C)(=O)=O)cc2)n1 (stereo unspecified)	3.2
ON=C(CCc1ccccc1)c1ccccc1	2.6
CCc1nc2ccc(C(=O)N3CCN(S(=O)(=O)CC)CC3)cn2c1N(CC)Cc1cccc(Br)c1	4.4
O=C1NC(=S)SC1=Cc1ccccn1	64*
Cc1ccc(-c2nc3ccc(Br)cn3c2Cc2ccsc2)cc1	-7.0
COc1cc(Cl)ccc1OC1(C)CCN(Cc2c(F)cccc2F)C1 (stereo unspecified)	-0.8
O=C(O)CN=C(Nc1cc(Cl)cc(Cl)c1)NC(c1ccccc1)c1ccccc1	1.1
CCCS(=O)(=O)NC(=O)C1(C)CCN(C(=O)c2ccccc2C(F)(F)F)C1 (stereo unspecified)	-10
CC1(C(=O)Nc2ccc(Cl)c(Cl)c2)CCN1C(=O)Cc1ccc(-c2ccccc2)cc1 (stereo unspecified)	-6.4
CCCC(NC(=O)CCc1c(C)c2cc3c(C)c(C)oc3cc2oc1=O)C(=O)NC(Cc1ccc(Cl)cc1)C(=O)O (stereo unspecified)	4.9
O=C(NC(c1ccc(-c2ccccc2)cc1)c1cnccn1)C1CCN(Cc2cccs2)CC1 (stereo unspecified)	3.4
CCC1NC(=O)c2cccnc2-n2c1nc1cc(C)cc(C)c1c2=O (stereo unspecified)	-3.3
COC(=O)c1ccc2nc(-c3cccc(Br)c3)c(Cc3ccc(OC)cc3C)n2c1	19
COc1ccc(OCCN2CCC(C(=O)NC(c3ccc(F)cc3)c3ccc4ccccc4n3)CC2)cc1 (stereo unspecified)	-1.2
COc1ccc(OCCN2CCC(C(=O)NC(c3ccc(Cl)cc3)c3cnccn3)CC2)cc1 (stereo unspecified)	3.7
CC1(C(=O)NS(=O)(=O)c2ccc(C#N)cc2)CCN1C(=O)CCC1CCCC1 (stereo unspecified)	1.7
Cn1ccc2c(N3CCCC3)cc3c(c21)C1CCC3O1 (stereo unspecified)	1.3
CC(C)Oc1cc(F)ccc1-c1cc(C(=O)NCc2cccnc2)[nH]n1	2.4
COc1cccc(Cn2cnc(-c3ccccc3OC)c2-c2cc(C)cc(C)c2)c1	4.3
Cc1c(C(=O)NCc2ccc3c(c2)OCO3)sc(=O)n1Cc1cccc(F)c1	1.1
OCCCNc1ncnc2c1ncn2[C@H]1CN(Cc2ccco2)C[C@@H](CO)O1	3.5
CCCCNC(=O)C1C(c2ccc(OC)cc2)=Nc2ccccc2N1C(=O)Cc1cc(OC)cc(OC)c1 (stereo unspecified)	0.5
O=C(NCCc1ccccc1)Nc1nnc([C@H]2C[C@H](O)[C@@H](CO)O2)s1	2.3
COc1ccc(NC(=O)C2(C)CCN2C(=O)c2ccc(C(C)(C)C)cc2)cc1OC (stereo unspecified)	-4.4
CC(C)Cc1ccc(-c2cc3nc(NCC4CC4)ccn3n2)cc1	-0.6
COc1ccccc1N1CCN(c2ncnc3n[nH]c(Br)c23)CC1	-1.3
COc1ccc(CCN2CC(C(=O)N(C)Cc3ccccn3)CCC2=O)cc1 (stereo unspecified)	1.8
COC(=O)[C@]12CCCCC=C1N(CCc1ccc(OC)c(OC)c1)C(=O)[C@H](CC(=O)N1CCN(C(=O)c3ccco3)CC1)C2	-3.4
CC(C)NC(=O)c1csc(COCCO)n1	2.2
O=C(CC[C@H]1O[C@@H](n2ccc(=O)[nH]c2=O)[C@H](O)[C@@H]1O)N[C@H](Cc1ccccc1)C(=O)NCC1CCCCC1	19
COc1ccc(C(C(=O)NCc2ccccc2)n2c(-c3ccccn3)nc3ccccc32)cc1 (stereo unspecified)	-2.1
CCOC(=O)C1=CCN(S(=O)(=O)c2ccc(C)cc2)C1c1ccc(C(C)C)cc1 (stereo unspecified)	-1.6
COC(=O)[C@]12CCCCC=C1N(Cc1cccc3ccccc13)C(=O)[C@H](CC(=O)NCc1cccs1)C2	-2.8
CCOC(=O)C1CCCN(C(=O)c2ccc(-c3ccccc3)cc2)CC1 (stereo unspecified)	0.6
CCOC(=O)C[C@@H]1OC[C@H](C)N1S(=O)(=O)c1ccc(C)cc1	2.3
C[C@@H]1CN([C@H](C)CO)C(=O)CCCn2nncc2CO[C@H]1CN(C)Cc1ccc(C(=O)O)cc1	-0.2
COc1ccc(S(=O)(=O)N2CCCCC2c2cc(C(=O)Nc3ccccc3Cl)no2)cc1 (stereo unspecified)	3.0
CCCN(CC1CC1)c1cc2c(c3c1ccn3C)C1CCC2C1 (stereo unspecified)	-0.7
CC(C)(C)OC(=O)NCc1ccc(NC(=O)c2nc[nH]c2C(=O)Nc2cc(Br)ccc2F)cc1	-2.6
CCC(CC)C(C(=O)NC1CCCC1)N1CCN(c2cc(C)nc3ccccc23)CC1 (stereo unspecified)	-1.8
C[C@@H]1CN([C@H](C)CO)C(=O)CCCn2nncc2CO[C@H]1CN(C)C(=O)CCC(F)(F)F	0.4
CC(C)S(=O)(=O)NC(=O)C1(C)CCN1C(=O)Cc1ccccc1 (stereo unspecified)	-1.4
COC(=O)Cn1c2ccccc2c(=O)n1C(C)C	-5.3
COc1cc(OC)cc(C2=Cc3ccc(OC)cc3C(CC(C)=O)N2c2ccc(C#CC3(O)CCCCC3)cc2)c1 (stereo unspecified)	3.4
CN(C)c1ccc(NC(=O)Nc2ccc3c(c2)c(=O)n(C)n3Cc2ccc(Cl)cc2)cc1	11
COC(=O)c1ccc2nc(-c3ccco3)c(Cc3ccccc3)n2c1	3.7
Oc1ccc(F)c(CN2CCN(c3ncc(Cc4ccccc4)cn3)CC2)c1	1.1
CC(=O)Nc1cccc(Oc2nc(NC(C)C)nc3cc(-c4ccccc4)sc23)c1	-0.6
NC(=O)c1ccc(Nc2nc(C(N)COCc3ccccc3)cs2)cc1 (stereo unspecified)	6.7
COc1ccc(-c2ccc(CN3C(C(C)C)C(=O)N(Cc4cn(CC5CCCCC5)nn4)CCS3(=O)=O)cc2)cc1OC (stereo unspecified)	2.7
Cc1cccc(OC(=O)c2ccc3c(=O)n4c(nc3c2)CCC4)c1	-2.7
Cc1ccc(-c2cnc(C(O)c3ccc(Cl)cc3C)[nH]2)cc1 (stereo unspecified)	0.0
Cn1ncc2cc3c(Nc4ccc(Cl)cc4)cccc3nc21	1.8
OC[C@@H]1CN(Cc2ccc(Cl)cc2)C[C@H](n2cnc3c(N4CCN(c5ccccc5)CC4)ncnc32)O1	-0.9
CCCCCCN1C[C@H](n2cc(-c3ccc(F)cc3)nn2)[C@@H](O)C[C@@H]1c1ccc(C)cc1	-2.8
COc1cccc(NC(=O)C2(C)CCN2Cc2ccc3ccccc3c2)c1 (stereo unspecified)	-1.9
O=C(C[C@@H]1C=C[C@@H](NC(=O)c2cccnc2)[C@@H](CO)O1)NCc1ccncn1	5.7
COC(=O)[C@@]12C[C@@H](CC(=O)N3CCCCC3)C(=O)N(Cc3ccccc3)C1=CCC(C)(C)C2	-0.4
Cc1ccccc1-c1cc2c(c3c1ccn3C)C1CCC2C1 (stereo unspecified)	2.6
CC(O)(c1cccc(F)c1)c1nc(-c2cccc(F)c2)cs1 (stereo unspecified)	0.2

In another format: 7 of the compounds above
compound | HNF4A DNA FP
NC(=O)c1ccc(Nc2nc(C(N)COCc3ccccc3)cs2)cc1 (stereo unspecified) | 6.7
CC(=O)Nc1cccc(Oc2nc(NC(C)C)nc3cc(-c4ccccc4)sc23)c1 | -0.6
COC(=O)[C@@]12C[C@@H](CC(=O)N3CCCCC3)C(=O)N(Cc3ccccc3)C1=CCC(C)(C)C2 | -0.4
COC(=O)c1ccc2nc(-c3ccco3)c(Cc3ccccc3)n2c1 | 3.7
C[C@@H]1CN([C@H](C)CO)C(=O)CCCn2nncc2CO[C@H]1CN(C)C(=O)CCC(F)(F)F | 0.4
OC[C@@H]1CN(Cc2ccc(Cl)cc2)C[C@H](n2cnc3c(N4CCN(c5ccccc5)CC4)ncnc32)O1 | -0.9
CCCCCCN1C[C@H](n2cc(-c3ccc(F)cc3)nn2)[C@@H](O)C[C@@H]1c1ccc(C)cc1 | -2.8

The listing continues:
SMILES	HNF4A DNA FP
CCCc1nc2cc(C)c(Br)c(C)n2c1Cc1ccccc1OC	2.4
COC(=O)[C@@]12C[C@@H](CC(=O)NCCCCc3ccccc3)C(=O)N(Cc3cccc4ccccc34)C1=CCC(C)(C)C2	1.1
CC(O)(c1ccccc1)c1nc(-c2cccc(C(=O)O)c2)cs1 (stereo unspecified)	-4.7
O=C(CC[C@H]1O[C@@H](n2cnc3c(NC(=O)c4ccccc4)ncnc32)[C@H](O)[C@@H]1O)NCc1cccc2ccccc12	0.0
CC(C)CCNC(=O)c1[nH]c(C(F)(F)F)nc1-c1ccccc1	-0.1
Cc1cc(C)cc(C(O)c2ncc(-c3ccccc3F)[nH]2)c1 (stereo unspecified)	0.1
CCCCN(C)c1c(C)nc2ccc(C(=O)NC3CCN(C)CC3)cn12	-2.2
COc1ncnc2c1ncn2CCCNCc1ccc(C)o1	-0.2
Cn1ccc2c(-c3cccc(C=O)c3)cc3c(c21)C1CCC3O1 (stereo unspecified)	2.0
Cc1cccc(C)c1NC(=O)C(c1ccncc1)n1c(=O)c(-c2ccco2)nc2ccccc21 (stereo unspecified)	-2.8
O=C1NC[C@@H](CCCCN2C[C@H](Cc3ccccc3)N(CCc3ccccc3)C(=O)C2=O)N(Cc2ccccc2)C1=O	1.9
COc1cccc(-c2csc(Nc3ccc(Oc4ccccc4)cc3)n2)c1	-0.8
CC(C)C1CC2=C(C(=O)OC(C)(C)O2)C(c2ccc(Cl)cc2)O1 (stereo unspecified)	2.1
Cc1c(C(=O)NNC(=O)c2csc(N3CCOCC3)n2)oc2ccc(Br)cc12	2.2
O=C(Nc1ccc2c(c1)OCCO2)C(c1cc2ccccc2o1)N1CCC(Cc2ccccc2)CC1 (stereo unspecified)	-2.7
CCCNC(=O)C1(C)CCCN(C(=O)c2cc(C)nn2C(C)(C)C)C1 (stereo unspecified)	-1.3
Cn1c(NCc2ccc3occc3c2)nc2cc(-c3cccc(C(F)(F)F)c3)sc2c1=O	-4.2
CCOC(=O)[C@]12CCC=C1N(CCC1=CCCCC1)C(=O)[C@H](CC(=O)NCCC(C)C)C2	0.1
FC(F)(F)c1ccc(-c2nc3ccccc3s2)cc1	-3.4
CCCN(C)C1CN(Cc2cn(Cc3ccc(C)cc3)nn2)S(=O)(=O)C1 (stereo unspecified)	0.1
O=C(c1ccco1)N1CCN(C(=O)c2ccco2)CC1	-1.2
CC1(C(=O)NCC2CCCCC2)CCN1C(=O)Cc1ccc(-c2ccccc2)cc1 (stereo unspecified)	-1.6
COc1ccc(-n2nnnc2C2c3ccccc3C(=O)N2C2CCN(Cc3ccccc3)CC2)cc1 (stereo unspecified)	2.4
CC(C)Cc1ccc(-c2ccc3nccn3c2)cc1	-3.6
O=C(Nc1ccc2c(c1)OCO2)C1Cc2c(-c3ccccc3Oc3ccccc3)ccnc2O1 (stereo unspecified)	-2.1
COCCNc1nc2cc(-c3ccccc3C)sc2c(=O)n1C	6.8
CCCCn1c(N)c(N(CC(C)C)C(=O)CC(NC(=O)c2ccccc2Cl)c2ccccc2)c(=O)[nH]c1=O (stereo unspecified)	-2.9
COc1ccc(C2OC(CCc3ccccc3)CC3=C2C(=O)OC(C)(C)O3)cc1 (stereo unspecified)	-0.3
O=C(Nc1ccccc1)C1Cc2c(-c3cccc(F)c3)ccnc2O1 (stereo unspecified)	-0.7
COc1cccc(C(c2nnnn2-c2c(C)cccc2C)N2CCN(C/C=C/c3ccccc3)CC2)c1OC (stereo unspecified)	-0.1
CCCCC(=O)N(C)c1c(CC)nc2c(OCC(=O)c3ccc(Cl)cc3Cl)cccn12	5.4
CCc1nc2c(OCC(N)=O)cccn2c1N(C)C(=O)c1ccc(OC)cc1	0.1
CCCNC(=O)C1(C)CCCN(Cc2cccn2C)C1 (stereo unspecified)	-3.6
COC(=O)[C@]12CCCCC=C1N(Cc1ccc(Cl)cc1Cl)C(=O)[C@H](CC(=O)NCC13CC4CC(CC(C4)C1)C3)C2	6.8
CCCCN(C=O)c1c(CC)nc2ccc(C(=O)N3CCN(c4ccccc4)CC3)cn12	-0.3
CC1(C(=O)NS(=O)(=O)c2ccccc2)CCN1C(=O)Cc1cccs1 (stereo unspecified)	1.6
Cc1cccc(C)c1NC(=O)C(CCc1ccccc1)n1c(=O)c(-c2ccccc2)nc2ccccc21 (stereo unspecified)	3.2
CC(NC(=O)c1c(N)[nH]c(C(=O)c2ccccc2)c1-c1ccccc1Br)c1cccc2ccccc12 (stereo unspecified)	6.9
COC(=O)c1csc(-c2ccc(CO)o2)n1	-3.3
CN(C)CCNC(=O)c1cccc(-c2cnc3c(NC=O)cc(-c4cc(F)c(F)c(F)c4)cn23)c1	8.8
CC1(C(=O)NS(=O)(=O)c2ccc(C#N)cc2)CCN1C(=O)Cc1cccc2ccccc12 (stereo unspecified)	-0.4
CC1=C(C(=O)N2CCCCCC2)CC(CC(=O)NC2CC2)C(=O)N1Cc1ccccc1 (stereo unspecified)	4.9
OC(c1ccc(-c2ccccc2)cc1)c1ncc(-c2ccccc2Cl)[nH]1 (stereo unspecified)	4.3
Cc1ccc2nc(-c3ccc(C#N)cc3)c(Cc3ccccc3)n2c1	9.0
CC(=O)c1ccc(OCc2nnn(CC(=O)NS(=O)(=O)Cc3ccccc3)c2-c2ccccc2)cc1	-0.7
COC(=O)[C@@]1(Cc2ccc(F)cc2)[C@H]2c3cc(C(=O)N4CCCC4)n(Cc4ccc(Cl)c(C(F)(F)F)c4)c3C[C@H]2CN1C(=O)c1ccccc1	7.8
COc1cccc(-c2cc(CNC(=O)[C@H]3O[C@@H](n4cnc5c(N)ncnc54)[C@H](O)[C@@H]3O)no2)c1	5.7

Reprinted at random: two entries already listed, in no set order.
SMILES	HNF4A DNA FP
CC1(C(=O)NS(=O)(=O)c2ccc(C#N)cc2)CCN1C(=O)Cc1cccc2ccccc12 (stereo unspecified)	-0.4
Cc1ccc2nc(-c3ccc(C#N)cc3)c(Cc3ccccc3)n2c1	9.0
